# FGF22 binding: FGF22 (human) thermal shift binding | recombinant FGF22 thermal shift, SYPRO orange fluorescence; percent of sucrose octasulfate shift, DMSO zero | calls only at 9.99 µM | hit rate 1.5% among 340,000;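 active = melting point raised past a set limit in the mean and every replicate; three in four hits are not shown here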
# Target sequence (Q9HCT0 whole entry, looked up): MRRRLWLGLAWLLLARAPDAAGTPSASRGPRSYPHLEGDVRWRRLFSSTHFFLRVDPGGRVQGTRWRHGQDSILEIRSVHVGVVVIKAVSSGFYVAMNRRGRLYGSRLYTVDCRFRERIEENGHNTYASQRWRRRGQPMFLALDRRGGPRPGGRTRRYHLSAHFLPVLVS
# rRNA inh HTS: selective bacterial rRNA inhibition in E. coli; E. coli WT GFP vs humanized-ribosome RFP mutants, fluorescence, 24 h; stronger effect = lower value; DMSO median 0, no signal -100; GFP signal change (wild-type ribosome), % (no concentration beside the values); hit rate 1.6% among 350,000;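 active = significant combined selectivity score with lowered wild-type GFP, culture density cut under 30%, mutant RFP and density less affected; inactive = any of these conditions unmet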; also: one replicate is shown; some compounds called inactive have numbers as strong as hits
# rRNA inh HTS OD600: second read-out of rRNA inh HTS, no call of its own (marks repeat the call); OD600 change, %; measured here: OD600 growth;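 optical density of the mix in the first replicate; 0 = DMSO median and -100 = no signal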
# rRNA inh HTS RFP: recorded beside rRNA inh HTS, whose call it bears; RFP signal change, %; measured here: RFP humanized mutant strains;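 first replicate; 0 = DMSO median and -100 = no signal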
# An asterisk follows results filed as active; i = inactive. An excerpt; rates above refer to the full screens.
no.	canonical_smiles	FGF22 binding	rRNA inh HTS
1	CC(C)NC(=O)N(C)C[C@@H]1OCCCC[C@@H](C)Oc2ccc(NS(=O)(=O)c3cn(C)cn3)cc2C(=O)N([C@H](C)CO)C[C@H]1C	i	7
2	COCC(=O)Nc1ccc2c(c1)C(=O)N(C)[C@@H]1CC[C@H](CC(=O)NC3Cc4ccccc4C3)O[C@@H]1CO2	i	3
3	Cc1cccc(S(=O)(=O)N[C@H]2CC[C@H](CCNS(=O)(=O)c3ccccc3F)O[C@H]2CO)c1	i	-3
4	COCC(=O)Nc1ccc2c(c1)C(=O)N(C)[C@@H]1CC[C@H](CC(=O)NCc3ccccc3F)O[C@H]1CO2	i	3
5	COc1ccc(NC(=O)Nc2ccc3c(c2)C(=O)N([C@@H](C)CO)C[C@H](C)[C@H](CN(C)C(=O)NC2CCCCC2)O3)cc1	i	1
6	CCS(=O)(=O)N1CC2(C1)[C@H](c1ccccc1)[C@H](CO)N2Cc1ccc(F)cc1	i	-9
7	CC(C)NC(=O)N(C)C[C@@H]1OCCCC[C@@H](C)Oc2ccc(NC(=O)Nc3ccc(C(F)(F)F)cc3)cc2C(=O)N([C@@H](C)CO)C[C@H]1C	i	2
8	Cc1ccc(S(=O)(=O)N(C)C[C@H]2OCCCC[C@@H](C)Oc3ccc(NC(=O)C4CCCCC4)cc3C(=O)N([C@@H](C)CO)C[C@@H]2C)cc1	i	2

no.	rRNA inh HTS OD600	rRNA inh HTS RFP
1	15	2.2
2	5	0.3
3	-4	3.2
4	5	0.3
5	0	0.4
6	-9	1.8
7	-6	0.1
8	6	4.7

# Further results.
no.	canonical_smiles	FGF22 binding	rRNA inh HTS
9	COc1ccc(S(=O)(=O)N(C)C[C@@H]2OCCCC[C@@H](C)Oc3ccc(NS(=O)(=O)c4ccccc4)cc3C(=O)N([C@H](C)CO)C[C@H]2C)cc1	i	6
10	CCCC(=O)Nc1ccc2c(c1)C(=O)N(C)C[C@H](OC)[C@H](C)CN(C(=O)CC1CC1)[C@@H](C)CO2	i	4
11	CC(C)NC(=O)N(C)C[C@@H]1Oc2ccc(NC(=O)C3CC3)cc2CC(=O)N([C@@H](C)CO)C[C@H]1C	i	4
12	CCC(=O)N1C[C@H](C)[C@@H](OC)CN(C)C(=O)c2ccc(NC(=O)c3ccccc3)cc2OC[C@@H]1C	i	1
13	COc1ccc(S(=O)(=O)N(C)C[C@@H]2Oc3ccc(NC(=O)Nc4ccc(C(F)(F)F)cc4)cc3CC(=O)N([C@H](C)CO)C[C@@H]2C)cc1	i	2
14	COCC#Cc1ccc2c(c1)O[C@H](CN(C)C(=O)C1CCC1)[C@H](C)CN([C@H](C)CO)S2(=O)=O	i	-4
15	COc1ccc(S(=O)(=O)N(C)C[C@H]2OCCCC[C@H](C)Oc3ccc(NC(=O)Nc4c(C)noc4C)cc3C(=O)N([C@H](C)CO)C[C@H]2C)cc1	i	-3
16	CN(C)CC(=O)Nc1ccc2c(c1)[C@@H]1C[C@@H](CC(=O)NC3CCCC3)O[C@H](CO)[C@@H]1O2	i	2

no.	rRNA inh HTS OD600	rRNA inh HTS RFP
9	-4	7.5
10	10	-1.7
11	11	1.4
12	0	-1.9
13	5	5.2
14	-10	2.1
15	1	-2.1
16	10	-2.6

# The list goes on.
no.	canonical_smiles	FGF22 binding	rRNA inh HTS
17	C[C@@H]1CN([C@@H](C)CO)C(=O)c2cc(-c3cncnc3)cnc2O[C@H]1CN(C)Cc1ccc(Oc2ccccc2)cc1	i	-1
18	Cc1ccc(S(=O)(=O)N(C)C[C@H]2Oc3c(NS(=O)(=O)c4ccc(F)cc4)cccc3C(=O)N([C@@H](C)CO)C[C@@H]2C)cc1	i	2
19	CO[C@@H]1CC[C@H]2CCN(C)C(=O)[C@H](C)[C@H](OC)CN(C)C(=O)c3cccc(C#N)c3OC[C@H]1O2	i	4
20	C[C@@H]1CCCCO[C@H](CN(C)C(=O)C2CCCCC2)[C@@H](C)CN([C@H](C)CO)C(=O)c2cc(NC(=O)C3CCCCC3)ccc2O1	i	2
21	CO[C@H]1CC[C@@H]2CCOc3c(C#N)cccc3C(=O)N(C)CCCC(=O)N(C)C[C@H]1O2	i	4
22	COc1cccc(-c2cnc3c(c2)C(=O)N([C@H](C)CO)C[C@H](C)[C@H](CN(C)S(=O)(=O)c2ccc(F)cc2)O3)c1	i	1
23	CN(C)CC#Cc1ccc([C@@H]2[C@@H](CO)N3CCCCN(C(=O)Nc4cc(F)ccc4F)C[C@H]23)cc1	i	4
24	C[C@H](NC(=O)C[C@H]1C[C@@H]2c3cc(N(C)C)ccc3O[C@@H]2[C@H](CO)O1)c1ccccc1	i	1

no.	rRNA inh HTS OD600	rRNA inh HTS RFP
17	-4	-2.1
18	-3	1.9
19	13	-4.2
20	1	-1.7
21	5	-4.4
22	0	2.3
23	7	-0.2
24	4	3.2

# Complete entries as entered above.
# `CN(C)CC#Cc1ccc([C@@H]2[C@@H](CO)N3CCCCN(C(=O)Nc4cc(F)ccc4F)C[C@H]23)cc1` as listed: FGF22 binding: i; rRNA inh HTS: 4; rRNA inh HTS OD600: 7; rRNA inh HTS RFP: -0.2
# `CO[C@@H]1CC[C@H]2CCN(C)C(=O)[C@H](C)[C@H](OC)CN(C)C(=O)c3cccc(C#N)c3OC[C@H]1O2` as listed: FGF22 binding: i; rRNA inh HTS: 4; rRNA inh HTS OD600: 13; rRNA inh HTS RFP: -4.2

# More results.
no.	canonical_smiles	FGF22 binding	rRNA inh HTS
25	CNC[C@@H]1OCCCC[C@H](C)Oc2ccc(NS(=O)(=O)c3ccc(OC)cc3)cc2C(=O)N([C@@H](C)CO)C[C@@H]1C	i	2
26	C[C@H]1CN([C@@H](C)CO)C(=O)c2cc(-c3cncnc3)cnc2O[C@@H]1CN(C)C(=O)Cc1cccnc1	i	2
27	COc1ccccc1-c1ccc2n(c1=O)C[C@H]1[C@H](CO)[C@@H](C(=O)N(C)C)N(CC3CCOCC3)[C@@H]21	i	3
28	CN1C(=O)c2cc(NS(=O)(=O)c3cccc(F)c3)ccc2OC[C@@H]2O[C@@H](CC(=O)NCCN3CCCCC3)CC[C@H]21	i	3
29	C[C@@H]1CN([C@@H](C)CO)C(=O)c2cccc(NC(=O)c3nc4ccccc4s3)c2O[C@@H]1CN(C)Cc1ccc(Cl)c(Cl)c1	i	4
30	COc1cccc(S(=O)(=O)N2CC[C@@H]3[C@H](CO)N(C)c4ccc(C#Cc5cccnc5)cc4[C@@H]32)c1	i	-2
31	COc1ccc(S(=O)(=O)N(C)C[C@H]2Oc3ccc(NS(=O)(=O)c4ccccc4)cc3C(=O)N([C@@H](C)CO)C[C@H]2C)cc1	i	-2
32	Cc1noc(C)c1NC(=O)N(C)C[C@@H]1Oc2c(NS(=O)(=O)c3ccc(F)cc3)cccc2C(=O)N([C@H](C)CO)C[C@@H]1C	i	5

no.	rRNA inh HTS OD600	rRNA inh HTS RFP
25	8	-1.8
26	19	0.6
27	14	-1.4
28	7	-1.9
29	14	-0.4
30	12	1.3
31	-12	2.2
32	12	0.7

# Further records:
no.	canonical_smiles	FGF22 binding	rRNA inh HTS
33	C[C@@H]1CN([C@H](C)CO)C(=O)c2cc(NS(C)(=O)=O)ccc2O[C@@H](C)CCCCO[C@@H]1CN(C)CC1CCCCC1	i	0
34	O=C(Cc1ccccn1)NCC[C@@H]1CC[C@@H](NC(=O)Nc2ccc(Cl)cc2)[C@H](CO)O1	i	1
35	O=C(C[C@@H]1CC[C@@H](NC(=O)Nc2cc(F)ccc2F)[C@@H](CO)O1)Nc1ccc(-c2ccccc2)cc1	i	-7
36	COc1ccc2c3c([nH]c2c1)[C@H](CO)N(C(=O)Cc1ccccc1)CC31CCN(C)CC1	i	3
37	COc1ccc(S(=O)(=O)Nc2cccc3c2O[C@@H](CN(C)S(C)(=O)=O)[C@@H](C)CN([C@H](C)CO)C3=O)cc1	i	-2
38	COCCNC(=O)C[C@H]1CC[C@H]2[C@H](COc3ccc(NS(=O)(=O)c4ccc(Cl)cc4)cc3C(=O)N2C)O1	i	-6
39	CNC(=O)C[C@H]1CC[C@@H]2[C@H](COc3ccc(NC(=O)Nc4cccc(Cl)c4)cc3C(=O)N2C)O1	i	3
40	C[C@@H]1CN([C@@H](C)CO)C(=O)c2cc(NS(=O)(=O)c3cn(C)cn3)ccc2O[C@@H](C)CCCCO[C@@H]1CN(C)C(=O)Nc1ccc2c(c1)OCO2	i	1

no.	rRNA inh HTS OD600	rRNA inh HTS RFP
33	1	-0.9
34	-5	-1.7
35	1	-2.7
36	2	0.2
37	5	0.0
38	-7	-1.0
39	0	1.7
40	-3	-1.9

# (continued)
no.	canonical_smiles	FGF22 binding	rRNA inh HTS
41	CC(C)CC#Cc1ccc2c(c1)O[C@@H](CN(C)C(=O)NC(C)C)[C@@H](C)CN([C@H](C)CO)S2(=O)=O	i	-4
42	C[C@@H]1CN([C@H](C)CO)C(=O)Cc2cc(NC(=O)C3CC3)ccc2O[C@H]1CN(C)Cc1ccc2c(c1)OCO2	i	2
43	C[C@@H]1CCCCO[C@@H](CN(C)Cc2ccc(C(=O)O)cc2)[C@H](C)CN([C@@H](C)CO)C(=O)c2cc(NS(C)(=O)=O)ccc2O1	i	3
44	C[C@@H](NC(=O)[C@@H]1[C@@H](CO)[C@@H]2Cn3c(ccc(-c4ccncc4)c3=O)[C@H]1N2C)c1ccccc1	i	1
45	C[C@H](CO)N1C[C@H](C)[C@@H](CN(C)Cc2ccc(-c3ccccc3)cc2)Oc2c(NC(=O)Nc3ccc(F)cc3)cccc2C1=O	i	-1
46	CC(C)C#Cc1cnc2c(c1)C(=O)N([C@H](C)CO)C[C@H](C)[C@H](CN(C)C(=O)Nc1cccc(F)c1)O2	i	3
47	O=C(C[C@H]1C[C@@H]2c3cc(NC(=O)C4CCC4)ccc3O[C@@H]2[C@@H](CO)O1)NC1CCCCC1	i	-2
48	Cc1ccc(-c2ccc3c(c2)O[C@@H](CN(C)C(=O)Nc2ccc(F)cc2)[C@H](C)CN([C@H](C)CO)S3(=O)=O)cc1	i	-2

no.	rRNA inh HTS OD600	rRNA inh HTS RFP
41	-10	2.2
42	4	-0.1
43	6	-0.3
44	2	-1.7
45	-1	-0.5
46	1	3.5
47	-1	-1.8
48	-10	6.6

# (next part)
no.	canonical_smiles	FGF22 binding	rRNA inh HTS
49	COc1ccc2c3c([nH]c2c1)[C@@H](CO)N(C(=O)Cc1ccccc1)CC31CCN(C(=O)Nc2ccccc2F)CC1	i	-2
50	C[C@H](CO)N1C[C@H](C)[C@@H](CN(C)C(=O)Cc2cccnc2)Oc2ncc(-c3cccnc3)cc2C1=O	i	3
51	C[C@@H]1CN([C@H](C)CO)C(=O)c2cc(-c3ccccc3)cnc2O[C@@H]1CN(C)Cc1ccc(C(=O)O)cc1	i	-3
52	COc1ccc(C(=O)Nc2ccc3c(c2)C(=O)N(C)C[C@H](OC)[C@@H](C)CN(C)[C@H](C)CO3)cc1	i	0
53	CC(C)NC(=O)N(C)C[C@H]1OCCCC[C@H](C)Oc2ccc(NC(=O)Nc3ccc(F)cc3)cc2C(=O)N([C@H](C)CO)C[C@@H]1C	i	-3
54	C/C=C/c1cnc2c(c1)C(=O)N([C@@H](C)CO)C[C@H](C)[C@H](CN(C)Cc1ccc3c(c1)OCO3)O2	i	2
55	C[C@@H]1CCCCO[C@H](CN(C)Cc2ccncc2)[C@@H](C)CN([C@H](C)CO)C(=O)c2cc(NS(=O)(=O)c3cn(C)cn3)ccc2O1	i	0
56	O=C(C[C@@H]1CC[C@H]2[C@@H](COC[C@@H](O)CN2C(=O)Nc2ccc(Cl)c(Cl)c2)O1)NCc1ccc(Cl)cc1	i	-62

no.	rRNA inh HTS OD600	rRNA inh HTS RFP
49	-3	-3.5
50	5	-5.3
51	3	-3.7
52	4	-1.3
53	-7	1.8
54	3	0.1
55	10	2.5
56	-80	-22

# (continued)
no.	canonical_smiles	FGF22 binding	rRNA inh HTS
57	C[C@@H]1CN([C@@H](C)CO)C(=O)c2cc(NC(=O)Nc3ccc(C(F)(F)F)cc3)ccc2O[C@@H]1CN(C)S(=O)(=O)c1ccc(F)cc1	i	4
58	C[C@@H]1CN([C@@H](C)CO)C(=O)c2cccc(NS(=O)(=O)c3ccc(Cl)cc3)c2O[C@@H]1CN(C)Cc1ccc(Oc2ccccc2)cc1	i	0
59	CNC[C@@H]1OCCCC[C@@H](C)Oc2ccc(NS(=O)(=O)c3ccc(F)cc3)cc2C(=O)N([C@H](C)CO)C[C@H]1C	i	5
60	COC(=O)[C@@H]1[C@@H](CO)[C@@H]2Cn3c(ccc(-c4ccccc4)c3=O)[C@@H]2N1S(C)(=O)=O	i	1
61	O=C(C[C@@H]1C=C[C@@H](NS(=O)(=O)c2ccc(F)cc2)[C@@H](CO)O1)NCCN1CCCCC1	i	3
62	C[C@@H]1CN([C@H](C)CO)C(=O)Cc2cc(NS(=O)(=O)c3ccc(Cl)cc3)ccc2O[C@@H]1CN(C)C(=O)Nc1ccc(F)cc1	i	-1
63	C[C@@H]1CN([C@H](C)CO)S(=O)(=O)c2ccc(C#Cc3ccccn3)cc2O[C@H]1CN(C)C	i	7
64	C[C@H](CO)N1C[C@H](C)[C@H](CN(C)Cc2ccccc2)Oc2ncc(C#CCc3ccccc3)cc2C1=O	i	-41
65	COc1cccc(C(=O)Nc2ccc3c(c2)C(=O)N(C)C[C@@H](OC)[C@@H](C)CN(CCc2ccccc2)[C@@H](C)CO3)c1	i	0
66	N#C[C@@H]1[C@@H](c2ccccc2)[C@@H](CO)N1C(=O)c1ccc2c(c1)OCO2	i	3

no.	rRNA inh HTS OD600	rRNA inh HTS RFP
57	4	-0.3
58	-5	-2.2
59	6	0.8
60	2	-3.9
61	-16	2.4
62	1	0.4
63	11	0.4
64	-68	12
65	1	5.6
66	17	-4.4

# Bioassay records from PubChem BioAssay.
